# Screening results: PubChem BioAssay, several laboratories
# Arbovirus anti: blocks arbovirus infection | arbovirus infection cell-based antiviral screen | inhibition, % at 10 µM | 200,000 compounds, 0.37% hits | AID 1251;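 active = inhibition from about 30%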;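 note: bluetongue infection of BSR cells; cell survival read as ATP light after 72 h; 0% = infected wells without compound and 100% = uninfected wells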
# RecA splice inh: blocks M. tuberculosis RecA intein splicing; 290,000 compounds, 0.75% hits; AID 2221; P9WHJ3; inhibition, %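 (about 9 µM by stock and volumes)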; cell-free RecA intein splicing, fluorescence; in the data active = inhibition above about 30%; inconclusive = no clear call, values can overlap the other calls;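 note: 0% = vehicle wells and 100% = reference inhibitor control wells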
# Target sequence (P9WHJ3 whole entry, looked up, canonical isoform): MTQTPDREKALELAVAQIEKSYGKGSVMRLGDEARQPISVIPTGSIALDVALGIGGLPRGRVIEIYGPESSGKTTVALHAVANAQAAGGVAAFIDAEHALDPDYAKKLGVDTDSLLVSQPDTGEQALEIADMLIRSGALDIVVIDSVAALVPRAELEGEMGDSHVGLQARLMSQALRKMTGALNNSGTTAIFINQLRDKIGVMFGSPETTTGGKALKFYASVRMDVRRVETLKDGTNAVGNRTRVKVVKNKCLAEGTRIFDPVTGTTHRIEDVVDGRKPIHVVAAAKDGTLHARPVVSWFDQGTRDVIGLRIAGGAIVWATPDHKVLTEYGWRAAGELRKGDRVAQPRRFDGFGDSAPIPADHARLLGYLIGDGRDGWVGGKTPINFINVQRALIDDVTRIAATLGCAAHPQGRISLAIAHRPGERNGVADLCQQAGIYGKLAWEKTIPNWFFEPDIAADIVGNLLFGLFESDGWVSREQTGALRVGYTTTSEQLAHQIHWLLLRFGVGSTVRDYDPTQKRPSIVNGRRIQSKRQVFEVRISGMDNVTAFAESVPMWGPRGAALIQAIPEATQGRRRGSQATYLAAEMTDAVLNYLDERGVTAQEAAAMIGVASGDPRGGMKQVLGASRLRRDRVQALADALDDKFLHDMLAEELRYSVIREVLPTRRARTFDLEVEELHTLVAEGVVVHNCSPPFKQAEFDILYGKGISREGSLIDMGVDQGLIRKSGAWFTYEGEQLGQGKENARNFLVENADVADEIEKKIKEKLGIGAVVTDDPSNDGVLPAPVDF
# Mtb bLac sens: beta-lactam sensitization of Mtb H37Rv. inhibition, % at 25 µM. M. tuberculosis H37Rv growth with meropenem, percent inhibition; hits of this screen are not shown here. 330,000 compounds, 0.27% hits. AID 434955;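 active = about 74% or more and at least 40 points above the plate without the antibiotic, then above 30% in a dose series; inconclusive = first-round hits that could not be retested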;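 note: growth measured after seven days incubation then overnight dye step; 0% = bacteria only wells and 100% = bacteria with antibiotic; twin plates without the antibiotic show which effects depend on it; some results filed as inactive read as strong as hits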
# YopH PTP inh: YopH (Yersinia) phosphatase inhibition; fluorescence Ex485/Em525; inhibition, %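 (about 10 µM by stock and volumes)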; 140,000 compounds, 0.16% hits; AID 898;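 active = inhibition of 50% or more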;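 note: controls were vehicle for no effect and minimum signal wells for full effect; inactives centre near -20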
# Mtb H37Rv: M. tuberculosis H37Rv growth inhibitors, H37Rv strain (AID 1626). M. tuberculosis H37Rv growth inhibition; higher % means a stronger effect. inhibition, % at 10 µM, or IC50 in µM where a hit was titrated. 220,000 compounds, 0.95% hits;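 active = confirmed in a dose series; inconclusive = inhibition above 80% but not taken into the dose series; inactive = below 80% or under 30% at every dose of the series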;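 note: bacteria incubated seven days before Alamar blue readout; 0% = bacteria only wells and 100% = bacteria with antibiotic wells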
# Arbovirus anti repeat: also measured in Arbovirus anti; calls as there; inhibition, %; measured here: 10K subset replicate screen; many hits read low in the repeat;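 first of two repeat runs on a subset; 0% = infected and 100% = uninfected wells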
# * = called active by the depositor; u = inconclusive; x = not tested or not shown.
SMILES,Arbovirus anti,RecA splice inh,Mtb bLac sens,YopH PTP inh,Mtb H37Rv,others
O=C(NCC(c1ccco1)N1CCOCC1)c1ccccc1 (centres undefined),x,0.7,-5,x,x,
CC(C)(C)c1ccc(Oc2ccc(N)cc2)cc1,-24,7.6,4,-9,14%,
CC(C)C(=O)Nc1ccc(C(=O)Nc2nnc(C(C)C)s2)cc1,3,-2.8,-2,x,0%,
COc1ccc(C(=O)OCc2nc(N)nc(Nc3ccccc3C)n2)cc1OC,-5,0.7,10,x,4%,
CCN(CC)CCNc1ccnc2cc(Cl)ccc12,-7,1.8,-10,19,-7%,
CCCCn1c(SCC(=O)N(C)C2CCS(=O)(=O)C2)nc2cc(S(N)(=O)=O)ccc21 (centres undefined),x,6.1,-2,x,10%,
O=C(Nc1nnc(C2CC2)s1)c1cc([N+](=O)[O-])ccc1N1CCCCC1,5,9.7,-3,-25,5%,
COc1ccc(CNC(=S)Nc2ccccc2)cc1Cl,x,6.0,10,x,x,
CC1Cc2ccccc2N1C(=O)CSc1ncccc1C(=O)O (centres undefined),x,-0.2,5,-42,-8%,
CCCC[C@@H](CN[C@H](C)CNC)NCC1CCC(C(C)(C)C)CC1 (some centres undefined),x,1.3,99,x,x,
O=C1CC(Nc2ccc(N3CCOCC3)cc2)C(=O)N1c1ccccc1 (centres undefined),-9,-5.2,0,-34,-5%,
CCN(CC)S(=O)(=O)c1ccc(-n2cnnn2)c(C)c1,2,-1.7,2,-18,-6%,
O=C(Nc1ccccc1)NC1(C(=O)NCCCN2CCOCC2)CCCCC1,7,x,-10,-41,0%,
Cc1ccc(NCc2n[nH]c(=S)n2-c2ccccc2)cc1,6,-0.4,2,x,-4%,
Nc1ccc2nc(-c3cccc(-c4nc5ccc(N)cc5[nH]4)n3)[nH]c2c1,x,11,4,x,x,
CCCCNC(=S)Nc1ccc(F)cc1,x,3.7,-3,x,-5%,
NS(=O)(=O)c1ccc(NC(=O)/C=C/c2ccc(S(=O)(=O)NCc3ccco3)cc2)cc1,x,0.5,4,x,x,
O=C(NCc1ccccc1)N1CCOc2ccccc21,x,-1.4,6,x,x,
O=S(=O)(NC1CC2CCC1C2)c1ccc(Br)cc1 (centres undefined),x,-0.3,2,x,x,
CCOC(=O)c1c(C(F)(F)C(F)(F)C(F)(F)C(F)(F)F)n[nH]c1C,8,1.4,5,-8,-6%,
CC(C)OCCCNC(=O)c1cccc(NC(=O)c2ccccc2)c1,1,-0.8,1,-15,-4%,
Cc1nc2ccccn2c1C(=O)Nc1ccc2c(c1)OCCO2,3,-0.9,-4,6,3%,
CC(=O)Nc1ccc(S(=O)(=O)N2CCN(S(=O)(=O)N3CCCCC3)CC2)cc1,-5,3.1,5,x,0%,
CCOC(=O)CCn1nc(-c2ccc(C)cc2)c2ccccc2c1=O,0,4.3,51,x,2%,
O=C(O)c1ccccc1C(=O)N(Cc1ccccc1)Cc1ccccc1,5,-1.4,2,-28,-6%,

# Gathered by group: the compounds so far containing a halogen (five)
SMILES,Arbovirus anti,RecA splice inh,Mtb bLac sens,YopH PTP inh,Mtb H37Rv,others
CCN(CC)CCNc1ccnc2cc(Cl)ccc12,-7,1.8,-10,19,-7%,
COc1ccc(CNC(=S)Nc2ccccc2)cc1Cl,x,6.0,10,x,x,
CCCCNC(=S)Nc1ccc(F)cc1,x,3.7,-3,x,-5%,
O=S(=O)(NC1CC2CCC1C2)c1ccc(Br)cc1 (centres undefined),x,-0.3,2,x,x,
CCOC(=O)c1c(C(F)(F)C(F)(F)C(F)(F)C(F)(F)F)n[nH]c1C,8,1.4,5,-8,-6%,

# Reprinted at random: 2 compounds from above
SMILES,Arbovirus anti,RecA splice inh,Mtb bLac sens,YopH PTP inh,Mtb H37Rv,others
CC(=O)Nc1ccc(S(=O)(=O)N2CCN(S(=O)(=O)N3CCCCC3)CC2)cc1,-5,3.1,5,x,0%,
CC1Cc2ccccc2N1C(=O)CSc1ncccc1C(=O)O (centres undefined),x,-0.2,5,-42,-8%,

# Next results:
SMILES,Arbovirus anti,RecA splice inh,Mtb bLac sens,YopH PTP inh,Mtb H37Rv,others
COc1ccc(C2=NN(C3=NN=C(N)Cc4ncnn43)C(O)(C(F)(F)F)C2)cc1 (centres undefined),-4,-0.7,-7,x,-2%,
COc1ccc(NC(=O)CCCC(=O)c2ccccc2)c(OC)c1,x,0.7,-7,x,x,
CCC(NC(=O)CCc1c(C)c2cc3c4c(oc3cc2oc1=O)CCCC4)C(=O)O (centres undefined),x,-3.7,2,x,x,
O=C(O)C1C2C=CC(C3CC23)C1C(=O)NCCc1ccccc1 (centres undefined),4,-0.5,-7,-7,5%,
CC1=C(C(=O)Nc2ccccc2)C(c2ccncc2)C(C#N)=C(SCC(=O)NC(C)C)N1 (centres undefined),2,-2.2,-2,16,-4%,
Cc1ccc(N2CC(C(=O)Nc3cc(C)ccc3F)CC2=O)cc1 (centres undefined),1,0.6,-5,-24,-4%,
CCOC(=O)C1CCN(C(c2cc3c(C)ccc(C)c3[nH]c2=O)c2nnnn2C2CCCCC2)CC1 (centres undefined),-12,6.0,58,-53,-1%,
CCOc1cc(N2CCOCC2)c(OCC)cc1NC(=O)c1oc2ccccc2c1C,0,-0.1,-5,x,3%,
O=C(O)CCCCCN1C(=O)C(=O)/C(=C(/O)c2ccccc2)C1c1ccccc1 (centres undefined),9,-0.6,x,-37,-10%,Arbovirus anti repeat=6
CSc1ccccc1C(=O)NCCCn1ccnc1,x,3.5,2,x,x,
CCOC(=O)c1c(NC(=O)CC2SC(N)=NC2=O)sc(C)c1C (centres undefined),4,-3.4,-5,x,-2%,
COc1ccc(-c2nnc3sc(COc4ccc(C)cc4)nn23)cc1,9,-0.1,54,-31,u,
COc1ccc(/C=C(/NC(=O)c2ccccc2)C(=O)NCC2CCCO2)cc1 (centres undefined),x,2.6,-5,x,x,
CCc1cc(C(=O)Nc2ccccc2)cs1,-11,1.5,4,-35,1%,Arbovirus anti repeat=-6
CCN(CC(=O)NCCCN1CCOCC1)S(=O)(=O)c1ccc(F)cc1,x,-2.7,-2,x,x,
O=C(Cn1c(=O)n(CC2CS2)c2ccccc21)N1CCCCC1 (centres undefined),25,1.0,1,x,5%,
O=[N+]([O-])c1ccc(/C([O-])=C(/C(=S)Nc2ccccc2F)[n+]2ccccc2)cc1,9,1.6,1,x,7%,
O=C(CCCN1C(=O)CCC1=O)Nc1ccccc1F,3,x,0,-21,1%,
CN1C(=O)NC(=O)/C(=C\c2ccc([N+](=O)[O-])o2)C1=O,7,-5.2,1,x,0%,
CCCCCCn1c(=O)[nH]c2nc3cc(N)ccc3nc2c1=O,-28,-68,0,-19,1%,
O=C(Nc1ccc2c(c1)OCO2)c1c(F)cccc1F,-9,5.3,0,8,0%,
COc1ccc(-n2c3c(cc(C(=O)N4CCC(C)CC4)c2=O)C(=O)CC(C)(C)C3)cc1,3,4.1,2,-34,2%,Arbovirus anti repeat=0
COc1cc(-c2noc(C)c2/C=C/c2ccc(N)cc2)cc(OC)c1OC,x,6.2,34,x,x,
N#CC1=C(N)Oc2n[nH]c(-c3cccs3)c2C1C1C=CCCC1 (centres undefined),-13,9.5,0,10,-3%,
Cc1cc(C)nc(/N=C2\NC(=O)CC(C(=O)O)N2c2ccc(Cl)cc2Cl)n1 (centres undefined),-1,-4.0,-2,x,0%,
SMILES,Arbovirus anti,RecA splice inh,Mtb bLac sens,YopH PTP inh,Mtb H37Rv,others
COc1ccc(NC(=S)Nc2cccc(S(=O)(=O)N3CCCCC3)c2)cc1,0,4.9,-5,-37,6%,
O=C(Nc1ccc(S(=O)(=O)N2CCC(C(=O)NC3CCCCC3)CC2)cc1)c1ccco1,-1,x,-3,-7,-2%,
N[C@@H](Cc1ccc(O)cc1)c1nnc([C@H](CC(=O)O)NC(=O)C2CCNCC2)o1,5,-0.8,-8,x,0%,
COc1cccc(-c2c(C(=O)N/N=C/C3CC=CCC3)nnn2-c2nonc2N)c1 (centres undefined),x,-2.2,20,x,x,
CCCCC/C(=N\NC(=O)Nc1ccccc1)c1ccccc1,-10,0.5,7,x,-10%,
Cc1ccsc1C(=O)N1CCCC(N(C)Cc2ccccc2)C1 (centres undefined),x,2.9,u,x,x,
CC(=O)Oc1ccccc1C(=O)O,x,-5.0,4,x,-1%,
CCOC(=O)C1CCN(c2ccccc2CN2CCN(c3ccccc3OCC)CC2)CC1,x,8.6,21,x,x,
CCN(CC)c1ccc(-n2c(O)c(C=C3N=c4ccccc4=N3)sc2=S)cc1,-8,-3.9,10,-31,-4%,
CCc1ccc(/C(C)=N/NC(=O)CNC(=O)/C=C/c2ccco2)cc1,x,-0.3,-2,x,x,
CC(C)(C)OC(=O)N1CCC[C@H]1c1nnc(SCc2c(F)cccc2Cl)o1,5,4.6,0,-38,-1%,
CC(C)C1Cc2c(sc(NC(=S)NC(=O)c3ccccc3)c2C#N)CO1 (centres undefined),-7,x,0,-33,-7%,
Cc1cc(NC(=O)c2ccccc2)sc1C,-7,2.2,8,-43,-18%,Arbovirus anti repeat=-8
O=C(Nc1cccc(OC(=O)N2CCCCC2)c1)N1CCCCC1,4,-1.7,2,-17,-1%,
CCCOc1ccc(S(=O)(=O)NCc2ccc(OC)cc2)cc1,8,4.0,-5,-16,9%,Arbovirus anti repeat=8
CCC(Oc1cc(Cl)ccc1Cl)C(=O)NN1C(=O)C2C3CCC(C3=C(C)C)C2C1=O (centres undefined),0,-1.0,1,-19,22%,
CCc1ccc(OCC(=O)NNC(=O)C2CCN(c3ncnc4sc(C)c(C)c34)CC2)cc1,x,0.9,-3,x,x,
COc1ccc(CCNC(=O)C2CCN(S(=O)(=O)c3cnc[nH]3)CC2)cc1OC,-3,0.4,-5,-26,-1%,
COC(=O)c1ccc(OCC(O)CN2CCC(C)CC2)cc1 (centres undefined),-6,x,9,-43,-6%,Arbovirus anti repeat=-1
CCCOc1cc(N(CC)CC)ccc1/C=C(/C#N)c1nc2ccc(C)cc2[nH]1,-1,-16,9,-52,62%,
O=C(N/N=C/c1ccc(Cl)s1)c1ccccc1[N+](=O)[O-],x,-1.5,-8,x,-6%,
C/C=C(\C)CN1CCC(Oc2cc(C(=O)NC3CC3)ccc2OC)CC1,x,-5.4,-9,x,x,
O=C(NCC(c1ccco1)N1CCc2ccccc21)C(=O)Nc1ccccc1F (centres undefined),x,-1.6,-5,x,x,
OC(CCNCCc1c[nH]c2ccccc12)C(F)(F)F (centres undefined),12,-0.4,-9,x,7%,
O=C(CN1CCN(S(=O)(=O)c2ccc(Br)cc2)CC1)Nc1ccc(F)cc1,11,3.4,92,-27,4%,
SMILES,Arbovirus anti,RecA splice inh,Mtb bLac sens,YopH PTP inh,Mtb H37Rv,others
COc1cc(NC(=O)c2cc3sccc3n2C)cc(OC)c1,5,6.1,45,-41,5%,
O=C(Nc1ccccc1OC(F)F)c1ccc(-n2cncn2)c([N+](=O)[O-])c1,x,-17,2,x,x,
N#Cc1c(NC(=O)c2ccccc2)sc2c1CCC2,-31,-2.3,-14,0,6%,
CCC(C)[C@H](N)c1nnc(SCc2cccc(F)c2)o1 (some centres undefined),5,-0.8,5,-14,1%,
Cc1cc(=O)nc2c3ccccc3n(CC(=O)NCCC3=CCCCC3)n12,x,-0.9,4,x,x,
CCn1c(NC(=O)c2cccs2)nc2ccccc21,-26,0.9,100,1,5.3µM*,
CCCN(CCC)CCNC(=O)C1c2ccccc2C(=O)N2CCc3ccccc3C12 (centres undefined),8,1.7,-15,x,-2%,

# A portion of the library. The share of hits here may be higher or lower than overall.
